# Assay outcomes (PubChem BioAssay)
# NADH enzymes = inhibition of NAD/NADH coupling enzymes, library profiling | actives 0.02% (n = 65,000) | IC50, µM (titrated, usually from 10 µM), inactives show at the highest dose inhibition | coupled PK/LDH NADH assays, four targets;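 active means single-dose screening hits from any of four coupled enzyme assays that gave an IC50 when retested across doses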;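 further: the DPM-DC format reads NADH fluorescence rather than 340 nm absorbance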
# MMP13 inh = blocks human MMP13 activity. P45452. MMP-13 fTHP FRET cleavage, Mca fluorescence. inhibition, % at 4 µM. actives 0.07% (n = 65,000). AID 570;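 active means inhibition above the mean of compound-free control plate wells plus 3 SD, cut at about 14% in these data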;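 further: 0% = DMSO wells and 100% = wells with reference MMP-13 inhibitor after basal subtraction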
# A340 absorber = compound absorbs light at 340 nm | fold change at 10 µM | AID 708 | compound absorbance at 340 nm, fold over control | 65,000 tested, under 10 active;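 active means at 10 µM dose, initial 340 nm absorbance at least 2 fold that of control wells; inactive means change under 2 fold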;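 further: initial absorbance extrapolated from kinetic A340 decline of NADH oxidation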
# Fluor 339 460 = intrinsic fluorescence of library compounds, ex339/em460 – biochemical, MLSMR library, data from DPM-DC assay, artefact control, profiling panel; compound autofluorescence, ex339/em460 nm, NADH buffer; hits give high values; 1 = no-compound wells, NADH background; fluorescence fold increase at 10 µM; actives 5.5% (n = 65,000); AID 709;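 active means at 10 µM, mean starting fluorescence two-fold or more over control wells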;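 further: signal is the first read of a kinetic run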
# tolC growth inh = blocks growth of E. coli BW25113 tolC mutant. AID 573. OD615. growth inhibition, % at 10 µM (by protocol). actives 2.2% (n = 65,000);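 active means growth inhibition at or above a cutoff equal to the mean over every tested compound plus 3 SD, cut at about 60% in these data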;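 further: growth measured after 20 h incubation at 37 °C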
#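 Test system: E. coli BW25113 ΔtolC::kan bacteria | Medium: Kanamycin-containing LB broth (50 µg/mL) | Dosing: One dose of 10 µM final | Times: 20 h incubation with compound, 37 °C | Detection: Optical density read at 615 nm | Read-out basis: Percent growth inhibition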
# HEK293 NFkB inh = lowers PMA/ionomycin-induced NF-kB signal in HEK293 cells; HEK-293 NF-kB luciferase reporter, luminescence; inhibition, % at 3 µM; actives 0.21% (n = 62,000);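 active means inhibition above the mean of all tested compounds plus 3 SD, cut at about 40% in these data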;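 further: 0% = stimulated DMSO wells and 100% = 10 µM reference inhibitor 5653914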
#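 Signal: luciferase luminescence; Material: HEK-293 cells with stable firefly luciferase reporter driven by four HIV NF-kB elements; Probe or stimulus: PMA with ionomycin; Replication: tested once; Times: 1 h compound pretreatment, then 16 h stimulation at 37 °C, 5% CO2; Benchmarks: DMSO and 10 µM reference inhibitor; Evaluation: per-plate % inhibition versus controls.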
# * hit, by the source's call; · = not tested or not shown; [ ] = dose if it differs, or a comment. These rows are one share of the data; rates above refer to the full screens.
SMILES,NADH enzymes,MMP13 inh,A340 absorber,Fluor 339 460,tolC growth inh,HEK293 NFkB inh
S=c1[nH]ncn1/N=C/c1ccccc1,13.0%,0.3,1.03,1.1,-23.2,-3.5
Cc1c(C2CC(=O)N(c3ccccc3)C2=O)[nH]n(-c2ccccc2)c1=O (configuration not stated),1.0%,-8.0,1.04,1.03,2.9,·
COc1ccc(N(CC(=O)NCC2CCCO2)S(=O)(=O)c2c(C)noc2C)cc1 (configuration not stated),5.0%,-23.1,0.99,1.12,-7.3,-5.9
COc1cccc(C2=NOC(C(=O)NCc3ccc(F)cc3)C2)c1 (configuration not stated),3.0%,3.6,1.01,1.1,5.7,-1.9
CCOC(=O)C1CCCN(C(=O)CN(c2ccc(OC)cc2)S(=O)(=O)c2c(C)noc2C)C1 (configuration not stated),5.0%,-5.7,1.02,1.05,2.9,2.2
CC(C(=O)NCc1ccccc1)N(CCN1CCOCC1)C(=O)c1snc(C(N)=O)c1N (configuration not stated),13.0%,-8.3,1.03,2.35*,-14.3,6.6
O=C(Cc1c(F)cccc1Cl)Nc1cccnc1,5.0%,-0.3,1.04,1.13,-5.1,13.0
CCOc1ccc(N(CC(=O)N2CCCC2)S(=O)(=O)c2c(C)noc2C)cc1,2.0%,0.4,1.04,1.13,5.0,3.7
O=C(COc1ccc(S(=O)(=O)NCc2ccccc2)cc1Cl)N1CCOCC1,9.0%,2.8,1.01,1.12,-18.6,13.0
O=S1(=O)CC(NCc2ccccc2)C(Nc2ccccc2)C1 (configuration not stated),4.0%,-2.9,0.98,1.09,-18.2,12.7
COc1cc(Br)c(CC(=O)O)cc1OC,6.0%,-0.5,1.03,1.07,-21.8,-2.0
CCCc1nnc(SCC(=O)N2CCCC(C)C2)n1CCCOC (configuration not stated),5.0%,-5.6,1.01,1.09,-5.1,31.4
Cc1ccc(N(CC(=O)NCc2ccc3c(c2)OCO3)S(C)(=O)=O)cc1,9.0%,-0.5,0.98,1.16,-11.7,10.7
O=S(=O)(/C=C/c1ccccc1)N1CCN(c2ccccc2)CC1,1.0%,0.2,1.02,1.14,-9.8,11.1
Cc1cccc(NC(=O)C2CCCN2S(=O)(=O)c2ccc(F)cc2)c1C (configuration not stated),5.0%,6.5,0.98,1.05,-4.8,19.8
COc1ccc(OC)c(NC(=O)CSc2nnc(N)s2)c1,5.0%,1.3,1.05,1.13,-14.6,1.7
CCOC(=O)N1CCC(NC(=O)C2CCCCN2S(=O)(=O)c2ccc(F)cc2)CC1 (configuration not stated),2.0%,3.2,1.08,1.09,2.5,3.1
CCCc1nnc(SCC(=O)N2CCCC2)n1CC1CCCO1 (configuration not stated),5.0%,5.7,1.01,1.03,-21.4,13.3
CC(C)Cc1c(O)nc(SCCN2CCOCC2)[nH]c1=O,4.0%,6.4,1.05,1.13,-19.6,18.3
O=C(CSc1ccccc1)Nc1cccnc1,0.0%,2.3,1.02,1.09,-6.6,8.9
O=C(c1ccccc1F)N1CCC(N2CCCCCC2)CC1,10.0%,-0.9,1.05,1.07,-3.3,·
O=S(=O)(NCCO)c1cccc2cccnc12,0.0%,1.0,1.02,1.04,-11.5,-5.1
O=C(c1ccccc1C(F)(F)F)N1CCN(S(=O)(=O)c2ccccc2)CC1,4.0%,4.2,1.01,1.06,-2.6,9.7
Cc1ccc2nc(CSc3nnc(-c4ccco4)o3)cc(=O)n2c1,12.0%,-14.3,1.14,1.68,1.0,15.0
CN(CC(O)COc1ccc(OCC(O)CN(C)C2CCCCC2)cc1)C1CCCCC1 (configuration not stated),2.0%,-10.3,0.99,1.01,16.7,·

# Only MMP13 inh and tolC growth inh, for some of the entries so far:
SMILES | MMP13 inh | tolC growth inh
COc1ccc(OC)c(NC(=O)CSc2nnc(N)s2)c1 | 1.3 | -14.6
CCOC(=O)N1CCC(NC(=O)C2CCCCN2S(=O)(=O)c2ccc(F)cc2)CC1 (configuration not stated) | 3.2 | 2.5
CCCc1nnc(SCC(=O)N2CCCC2)n1CC1CCCO1 (configuration not stated) | 5.7 | -21.4
CC(C)Cc1c(O)nc(SCCN2CCOCC2)[nH]c1=O | 6.4 | -19.6

# Entries listed so far printed as active in Fluor 339 460:
SMILES | NADH enzymes | MMP13 inh | A340 absorber | Fluor 339 460 | HEK293 NFkB inh
CC(C(=O)NCc1ccccc1)N(CCN1CCOCC1)C(=O)c1snc(C(N)=O)c1N (configuration not stated) | 13.0% | -8.3 | 1.03 | 2.35* | 6.6

# Four structures out of the list, sorted by SMILES length, ascending:
SMILES,NADH enzymes,MMP13 inh,A340 absorber,Fluor 339 460,tolC growth inh,HEK293 NFkB inh
O=C(c1ccccc1F)N1CCC(N2CCCCCC2)CC1,10.0%,-0.9,1.05,1.07,-3.3,·
COc1ccc(OC)c(NC(=O)CSc2nnc(N)s2)c1,5.0%,1.3,1.05,1.13,-14.6,1.7
Cc1cccc(NC(=O)C2CCCN2S(=O)(=O)c2ccc(F)cc2)c1C (configuration not stated),5.0%,6.5,0.98,1.05,-4.8,19.8
COc1ccc(N(CC(=O)NCC2CCCO2)S(=O)(=O)c2c(C)noc2C)cc1 (configuration not stated),5.0%,-23.1,0.99,1.12,-7.3,-5.9

# (list continues)
SMILES,NADH enzymes,MMP13 inh,A340 absorber,Fluor 339 460,tolC growth inh,HEK293 NFkB inh
CCCCN(CC)S(=O)(=O)c1ccc(C(=O)Nc2nnc(-c3ccccc3Cl)o2)cc1,6.0%,3.0,1.06,1.37,100.0*,19.7
CCOc1ccc(-n2ccnc2SCC(=O)NCc2ccc3c(c2)OCO3)cc1,3.0%,-1.5,1.01,1.07,14.1,9.1
CCCc1nc(N)nc2c1C(=O)CC(C)(C)C2,4.0%,-2.1,1.02,1.06,-15.4,6.8
COC(=O)c1ccccc1NC(=O)C1CC(c2ccc(F)cc2)=NO1 (configuration not stated),1.0%,1.9,1.03,1.16,22.3,16.8
COc1ccc(N(CC(=O)N2c3ccccc3CC2C)S(=O)(=O)c2c(C)noc2C)cc1 (configuration not stated),4.0%,-1.3,0.98,1.06,41.4,18.1
COc1ccc(Nc2nc(CC(C)=O)ns2)cc1OC,8.0%,-3.0,1.01,1.04,-10.7,22.5
O=S(=O)(NCc1cccs1)c1cccc2cccnc12,7.0%,3.0,0.98,1.04,-15.9,2.7
CCCCC(=O)NCCNc1nc2c(c(=O)n(C)c(=O)n2C)n1Cc1ccccc1,1.0%,3.7,1,1.07,-18.5,1.7
Cn1c(=O)c2c(nc(NC(Cc3ccccc3)C(=O)O)n2Cc2ccccc2)n(C)c1=O (configuration not stated),13.0%,0.8,0.99,1.07,-3.9,0.3
CCOc1cc(-c2nc3cc(C)ccn3c2NCC2CCCO2)ccc1O (configuration not stated),7.0%[fluoresces],-28.8,1.06,3.63*,-9.6,16.1
COc1ccc(OC)c(-n2nnnc2SCC(=O)NCc2ccc3c(c2)OCO3)c1,1.0%,-2.0,0.98,1.07,16.1,10.3
Cc1ccc(N(CC(=O)N2CCN(c3ccc(F)cc3)CC2)S(=O)(=O)c2c(C)nn(C)c2C)cc1,4.0%,-4.4,1.03,1.08,-0.9,10.4
CC1(C)CC(=O)C(C=NCCN2CCN(C(=O)CC3CCCC3)CC2)=C(O)C1,4.0%,1.1,1.02,1.11,10.3,2.9
CCc1nnc(NC(=O)C2CCCN2S(=O)(=O)c2ccc(F)cc2)s1 (configuration not stated),4.0%,-8.5,0.98,1.11,-10.0,9.6
c1coc(-c2nnc(SCc3cn4ccccc4n3)o2)c1,4.0%,1.4,0.98,1,20.8,9.7
N=C1C(c2nc3ccccc3[nH]2)=C(O)CN1c1ccccc1,1.0%,-0.7,1.04,1.12,1.8,-8.4
CCCCc1nc(SCC(=O)Nc2cc(C)on2)n[nH]1,10.0%,-3.2,1.03,1.06,-12.5,12.4
CCOCCCNC(=O)c1ccccc1Br,8.0%,7.4,1.03,1.08,-9.5,-1.1
CCN(CC)C(=O)CSc1nnc(-c2cc3ccccc3cc2O)n1CC,7.0%,-5.8,1.01,1.21,-1.1,19.3
CCN(C(=O)COC(=O)c1c(-c2ccccc2)noc1C)C1CCS(=O)(=O)C1 (configuration not stated),6.0%,3.6,0.99,1.11,-11.3,2.2
CC(C)c1c(O)nc(SCCN(C)C)[nH]c1=O,8.0%,6.9,0.99,1.1,-20.3,11.5
CCCCN(CC)S(=O)(=O)c1ccc(C(=O)Nc2nnc(-c3cccs3)o2)cc1,8.0%,1.7,1.07,1.17,99.1*,36.0
O=c1[nH]c2ccccc2c(=O)n1Cc1ccco1,7.0%,0.4,0.98,1.03,-14.8,16.4
CCCN(CCC)CCSc1nc(O)c(C(C)C)c(=O)[nH]1,2.0%,3.3,0.99,1.12,-20.7,15.1
COc1ccc2[nH]c(C)c(C(=O)CN3CCOCC3)c2c1,1.0%,4.8,1.05,1.09,-1.6,·
Cc1ccc(NC(=O)C2CCCN2S(=O)(=O)c2ccc(F)cc2)c(C)c1 (configuration not stated),1.0%,-1.3,1.02,1.12,-4.3,-4.5
CC(NS(=O)(=O)c1ccc(OCC(=O)N2CCOCC2)c(Cl)c1)c1ccccc1 (configuration not stated),2.0%,5.2,0.99,1.02,8.8,12.5

# Compound profiles, as listed above. Screens in order: NADH enzymes | MMP13 inh | A340 absorber | Fluor 339 460 | tolC growth inh | HEK293 NFkB inh
# Record of CCCCN(CC)S(=O)(=O)c1ccc(C(=O)Nc2nnc(-c3ccccc3Cl)o2)cc1 → 6.0% | 3.0 | 1.06 | 1.37 | 100.0* | 19.7
# Record of COC(=O)c1ccccc1NC(=O)C1CC(c2ccc(F)cc2)=NO1 (configuration not stated) → 1.0% | 1.9 | 1.03 | 1.16 | 22.3 | 16.8
